Screens (PubChem BioAssay)
NPYLR7 agonist: mosquito NPYLR7 agonism. activation, % at 10 µM. 270,000 tested, 0.15% active. HEK293T NPYLR7/Galpha15, GCaMP6s calcium fluorescence; in the data active = activation above about 40%;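 note: 0% = vehicle and 100% = reference agonist at the receptor; some compounds past the cut are filed as inactive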
NPYLR7 agonist max-min: second read-out of NPYLR7 agonist, no call of its own (marks repeat the call); activation, %; measured here: Max-Min RFU normalised activation; some inactives read as strong as hits;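 span of the calcium signal over five minutes; 0% = vehicle and 100% = native peptide agonist; compound fluorescence can raise it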
The depositor's hits bear a star; & = joins results of further samples. These rows are one share of the data; rates above refer to the full screens.

Below each SMILES – NPYLR7 agonist max-min, NPYLR7 agonist
- CCOCCOC(=O)C1=C(C)NC2=C(C(=O)CC(c3ccccc3)C2)C1c1ccc(CC)cc1 (stereo not drawn)
 : 9, 17
- O=C(CSc1nc(=O)n(Cc2ccccn2)c2c1CCC2)c1ccccc1
 : 3, 10
- CC1=NN(C(=O)CC#N)C(O)(c2ccc(Br)cc2)C1 (stereo not drawn)
 : -3, 0
- CN(Cc1cccc(F)c1)C(=O)c1cc(=O)[nH]c2ccccc12
 : 0, 5
- C=C(C)Cn1c(=O)c2c(nc3n(CCOC)c(C)cn23)n(C)c1=O
 : 19, 1
- COC(=O)c1ccc(-c2noc(CN3CCC(C(O)c4cccs4)CC3)n2)cc1 (stereo not drawn)
 : 7, 15
- O=C(CCc1ccccc1)Nc1nnc(SCC2CC2)s1
 : 8, -1
- O=C(CCNS(=O)(=O)c1ccc(Br)cc1)N1CC(n2cncn2)C1
 : 2, 4
- COc1ccc(OC)c(C(=O)N2CCC(OCCN(C)C)CC2)c1
 : 4, 4
- CN(C)CCCN(C(=O)CN1C(=O)c2ccccc2C1=O)c1nc2ccc(Cl)cc2s1
 : 0, 1
- O=C(CCN(c1nc(-c2cccs2)nc2ccccc12)C1CCCCC1)N1CCOCC1
 : 10, 6
- O=C(NC1CCN(c2ccccc2C(=O)N2CCCC2)CC1)c1ccccc1
 : 6, 9
- COCCCNC(=O)CSc1nc(Cl)cc(N2CCN(C(=O)c3cccc(OC)c3)C(C)C2)n1 (stereo not drawn)
 : 4, -3
- CCCNC(=O)Cn1c(=O)c(-c2csc(C)n2)c(N)n(CC)c1=O
 : -4, -3
- O=C(CCC1CCCC1)Nc1cc(N2CCCS2(=O)=O)ccc1O
 : -2, 0
- O=C/C=C/c1ccc(O)cc1
 : -13, -10
- COc1ccc(CN(CCc2c[nH]c3ccccc23)Cc2nc(C(=O)NCc3cccnc3)co2)c(OC)c1
 : 6, 15
- Cc1ccc(NC(=O)CN2C(=O)c3ccccc3C2=O)cc1F
 : -13, -5
- COc1cc(C=C(C#N)C(N)=O)cc(OC)c1O
 : 43, 24
- O=C(O)c1ccc(-c2cc(NC3CCCC3)nc3[nH]ccc23)nc1
 : -6, -7

A different layout for some results above.
canonical_smiles,NPYLR7 agonist max-min,NPYLR7 agonist
COCCCNC(=O)CSc1nc(Cl)cc(N2CCN(C(=O)c3cccc(OC)c3)C(C)C2)n1 (stereo not drawn),4,-3
C=C(C)Cn1c(=O)c2c(nc3n(CCOC)c(C)cn23)n(C)c1=O,19,1
COc1ccc(CN(CCc2c[nH]c3ccccc23)Cc2nc(C(=O)NCc3cccnc3)co2)c(OC)c1,6,15

5 entries drawn at random from those above, as already listed:
Below each SMILES – NPYLR7 agonist max-min, NPYLR7 agonist
- COC(=O)c1ccc(-c2noc(CN3CCC(C(O)c4cccs4)CC3)n2)cc1 (stereo not drawn)
 : 7, 15
- O=C(CSc1nc(=O)n(Cc2ccccn2)c2c1CCC2)c1ccccc1
 : 3, 10
- Cc1ccc(NC(=O)CN2C(=O)c3ccccc3C2=O)cc1F
 : -13, -5
- O=C(CCC1CCCC1)Nc1cc(N2CCCS2(=O)=O)ccc1O
 : -2, 0
- CC1=NN(C(=O)CC#N)C(O)(c2ccc(Br)cc2)C1 (stereo not drawn)
 : -3, 0

(cont.)
Below each SMILES – NPYLR7 agonist max-min, NPYLR7 agonist
- CN(Cc1ccsc1)C(=O)c1ccccc1-c1ncc[nH]1
 : 6, 10
- CC(C)C(NCc1ccc(OCC#N)cc1)c1cccs1 (stereo not drawn)
 : 1, 4
- CN1CC2(CCN(C(=O)c3cnc4c(c3)nnn4C)C2)OC1=O (stereo not drawn)
 : 5, 8
- Fc1ccc(CNc2ccc(CNc3ncn[nH]3)cc2)cc1
 : -25, -18
- O=C(Cc1ccccc1F)N1CCC(n2c(-c3ccccc3)nc3ccc(F)cc32)CC1
 : 4, 16
- N#Cc1ccc(OCC(=O)Nc2ccc(Br)cn2)cc1
 : -22, -21
- C=CCn1c(NN=Cc2ccc(OCC)cc2)nc2c1c(=O)n(C)c(=O)n2C
 : -2, -2
- COc1ccc(S(=O)(=O)Oc2ccccc2CN(Cc2ccco2)C(=O)c2cccs2)cc1
 : -1, -6
- CC(CCc1ccccc1)NC(=O)c1ccc(-c2cc(-c3ccc(N4CCCCC4)cc3)n[nH]2)cc1 (stereo not drawn)
 : 9, 0
- CCCCCn1cc(C2CCN(S(=O)(=O)c3ccccc3C(F)(F)F)CC2)c2ccccc21
 : 9, 23
- Cc1nc(-n2nnc(C(=O)N3CCN(c4ccccc4O)CC3)c2C)sc1C
 : -2, -1
- Cc1ccc(Cl)c(Oc2cc(N3CCN(C(=O)Cc4ccccc4)CC3)ncn2)c1
 : -12, -12
- COC(=O)c1ccccc1C=C1N=C(c2ccc(F)cc2)OC1=O
 : -3, 1
- COc1ccc(C2CC(C(F)(F)F)n3ncc(C(=O)NC(C)C)c3N2)cc1OC (stereo not drawn)
 : -9, -3
- CN(C(=O)CC1(CC(=O)O)CCCCC1)C1CCOCC1
 : 4, 5
- COc1cccc(Oc2cc(C(C)(C)C)nc(SCc3cccc(Cl)c3)n2)c1
 : 8, 3
- O=C(C1=CCCC1)N1CCCC(N2CCN(Cc3ccc4c(c3)OCO4)CC2)C1 (stereo not drawn)
 : -4&-1, 2&0
- O=[N+]([O-])c1cccc(Nc2cncc(-c3cccc(OC(F)(F)F)c3)c2)c1
 : -12, -9
- COc1nc(-c2ccc(C)cc2)n(-c2ccc(NS(=O)(=O)c3ccc(C)cc3)cc2)n1
 : 12, 2
- CCOC(=O)O[C@]1(C(=O)OCCl)CC[C@H]2[C@@H]3CCC4=CC(=O)C=C[C@]4(C)[C@H]3[C@@H](O)C[C@@]21C
 : -10, -4
- CCOC(=O)c1c(C(C)(C)C)oc2ccc(OC(=O)N3CCOCC3)cc12
 : -7, -4
- NC(=O)NC(=O)CC1Nc2ccccc2NC1=O (stereo not drawn)
 : -3, 3
- O=C(CCn1cnc2sc3c(c2c1=O)CCCC3)NCc1cccnc1
 : 4, 9
- c1ccc(CCc2nc(-c3ccc(C4CCCO4)s3)n[nH]2)cc1 (stereo not drawn)
 : 10, 18
- CC1N=C(C(=O)N(C)Cc2cccs2)NN(c2ccccc2)C1=O (stereo not drawn)
 : 3, 4
- O=C(CSc1nnnn1-c1ccccc1)Nc1ccc(Cl)c(Cl)c1
 : -11, -7
- CCOc1ccccc1CNC(=O)c1cnc2c(-c3ccc(C(C)C)cc3)cnn2c1C
 : 30, 23
- O=C(c1n[nH]c2c1CCC2)N(CC1CCN(Cc2ccccc2F)CC1)CC1CCCO1 (stereo not drawn)
 : 10, 16
- CCOc1nc(-c2cccc(OC)c2)n(-c2ccc(NC(=O)c3cccs3)cc2)n1
 : 18, 22
- Cc1ccc2nc(-c3ccccn3)c(NC(C)(C)CC(C)(C)C)n2c1
 : 1, -5
- FC(F)(F)CCc1ccnc(-c2ccn[nH]2)n1
 : 3, 4
- COc1ccc(CN2CCn3nc(C(=O)NC(C)c4ccccc4)cc3C2=O)cc1 (stereo not drawn)
 : 4, -7
- COCCN1C(=O)COCc2cc(-c3cccc(O)c3)ccc21
 : 7, 13
- COc1cccc(OC)c1C(=O)Nc1ccc(N2CCC(C)CC2)c(C(=O)NCc2ccc(F)cc2)c1
 : 15, 17
- CC1CCN(C(=O)c2cc(-c3ccccc3F)n3nc(C(C)(C)C)cc3n2)CC1
 : 11, 10
- O=C(Cc1ccc(N2CCCC2=O)cc1)NOC1CCCCO1 (stereo not drawn)
 : 4, 9
- Cc1ccc(S(=O)(=O)Nc2cccc(-c3ccc4nnc(-c5ccncc5)n4n3)c2)cc1
 : -10, -12
- Cc1cccc(OC2CN(C(=O)c3ccc(Cn4ccnc4)o3)C2)c1
 : 15, 22
- Cc1nc(-c2ccc(NC(=O)COC3CCCCC3)cc2)cs1
 : 16, 22
- COc1ccccc1C1(CC(=O)N2CCN(Cc3ccc4c(c3)OCO4)CC2)CC(=O)N(C)C1=O (stereo not drawn)
 : 5, 23
- CCc1cccc(NC(=O)CN(C)S(=O)(=O)c2ccc(Cl)c(C(F)(F)F)c2)c1
 : -1, -2
- COc1ccc(Cl)c2sc(N3CCCC3)nc12
 : 7, 11
- CC(=O)NC1=NN(C(C)=O)C2(S1)C(=O)N(CCCOc1ccccc1Cl)c1ccccc12 (stereo not drawn)
 : 14, 14
- O=C(CC1CSc2nc3c(cnn3-c3ccccc3)c(=O)n21)NCc1cccnc1 (stereo not drawn)
 : 1, 4
- CN(C)CCCN(C(=O)c1ccc(Cl)s1)c1nc2cc3c(cc2s1)OCCO3
 : -1, 0
- O=C(CCc1ccccc1)Nc1ccc(-n2cnnn2)cc1
 : 11, 5
- N#Cc1ncn(Cc2nc(N)nc(Nc3ccccc3)n2)n1
 : 3, 8
- CC(C)(C)NC(=O)CC1(C(=O)N2CCN(C(=O)OC(C)(C)C)CC2)CCCC1
 : 8, 10
- CCN(Cc1nccn1Cc1ccc(F)cc1)C(=O)C1CC1
 : 13, 5
- Cc1nn(-c2cccc(F)c2)c(N2CCN(C(C)C)CC2)c1CN(C(=O)Nc1ccc(Cl)c(Cl)c1)C(C)C
 : 12, 11
- CC(NC(=O)Cn1ncc(N2CCCC2)cc1=O)c1ccccc1 (stereo not drawn)
 : 5, 22
- CCC(C(=O)N1CCN(C(=O)CN2CCc3sccc3C2c2ccccc2)CC1)c1ccccc1 (stereo not drawn)
 : -5, 5
- O=C(NC1CCN(Cc2ccccc2)CC1)c1csc(CSc2nnc(Cc3ccccc3)n2-c2ccccc2)n1
 : 1, -9
- CCOC(=O)c1ccc2c(c1)nc(SCc1cc(Br)cc(Br)c1)n2CCc1ccc(OC)cc1
 : 5, 5
- CCOc1ccc(S(=O)(=O)N(C)C)cc1NC(=O)N(C)CC(C)(C)O
 : 11, 13
- COc1ccccc1OCC1CN(C(=O)Cc2nc(C)sc2C)CCO1 (stereo not drawn)
 : 23, 25
- COc1ccc(NC(C)C(=O)N2CCc3sccc3C2)c(OC)c1 (stereo not drawn)
 : 2, 4
- COc1ccc(CNC(=O)Cn2nc3c(c2NC(C)=O)CSC3)cc1
 : -1, -4
- CCNCc1cc(-c2cc(OC)c(OC)c(OC)c2)on1
 : 11, 21
- O=C(N1CCOCC1)C1(c2cccs2)CCCC1
 : -10, -9

The list goes on.
Below each SMILES – NPYLR7 agonist max-min, NPYLR7 agonist
- Cc1ccc(C(=O)NC2CCC(n3cnnc3)CC2)cc1N1CCNC1=O (stereo not drawn)
 : -6, -4
- Cc1cn2c3c(=O)[nH]c(=O)n(C)c3nc2n1CCCNc1ccccc1
 : -16, -17
- COc1ccccc1-c1cccc(C(=O)N2CCC3(CC2)CNC(=O)O3)c1
 : 6, 9
- C=C(C)Cn1c(C(=O)N2CCN(C(=O)c3cccc(OC)c3)C(C)C2)cc2ccoc21 (stereo not drawn)
 : 14, 13
- O=C(NN=C1C(=O)c2cccc3cccc1c23)c1cc(-c2ccncc2)nc2ccccc12
 : 2, 9
- CC(C)Oc1cccc(C(=O)C2CCCN(C(=O)c3ccsc3)C2)c1 (stereo not drawn)
 : -4, 0
- COc1ncccc1CN1CCC(c2ccnc(-c3cccc(O)c3)c2)C1 (stereo not drawn)
 : 12, 17
- COc1cc(C(=O)NCC(C)c2ccncc2)cc(OC)c1Br (stereo not drawn)
 : 5, 8
- CCOc1ccc(NC(=O)Cn2cc(OC)c(=O)cc2CSc2nc(C)cs2)cc1
 : -12, -7
- CC(C)(C)C1OCCCC1CNC(=O)NCc1ccncc1 (stereo not drawn)
 : 4, 2
- Cc1ccc(S(=O)(=O)N2CCN(C(=O)CCl)CC2)cc1C
 : 3, 8
- Cc1ccc(Sc2ccc(F)cc2)nc1
 : 0, 6
- CC1ON=C(c2ccccn2)N(Cc2ccc(S(C)(=O)=O)cc2)C1=O (stereo not drawn)
 : 3, 5
- Cc1cccn2c(CC(=O)N3CCc4nc[nH]c4C3)cnc12
 : 12, 23
- O=S(=O)(NCc1ccc2c(c1)OCO2)c1cc(Cl)ccc1Cl
 : 10, 1
- CC(C)n1ncc2c(=O)[nH]c(Cc3ccccc3)nc21
 : -9, -11
- CCCCCCC(=O)Nc1nnc(SCC(=O)c2cccc(C(F)(F)F)c2)s1
 : 11, 5
- Cc1ccc(-n2nc(C(=O)c3ccc(Cl)cc3)c(N)c(C#N)c2=O)cc1
 : 4, 8
- CN(C)CCCN(C(=O)CN1C(=O)CCC1=O)c1nc2ccc(Cl)cc2s1
 : 0, 1
- COc1ccc(N2C(=O)CC(N3CCN(Cc4ccccc4)CC3)C2=O)cc1 (stereo not drawn)
 : -13, -10
- c1cncc(CN(CC2CCCO2)c2ccc3nccnc3n2)c1 (stereo not drawn)
 : -2, -1
- CCn1nc(C)c(/C=C2/COc3cc4c(cc3C2=O)OCO4)c1C
 : 8, 9
- OCCNc1cc(-c2nccc(C3CCCC3)n2)c2cc[nH]c2n1
 : 16, 30
- Cc1noc(C)c1CN1CCN2C=C(C(=O)NC3CCc4ccccc43)OC2=NC1=O (stereo not drawn)
 : -1, 1
- CC1=NC2=C(C(=O)CC(C)(C)C2)C(c2ccc(I)cc2)C1C#N (stereo not drawn)
 : -18, -13
- CCOC(=O)c1c(NC(=O)c2cccc(F)c2)sc(C(=O)Nc2cccc(OC)c2)c1C
 : 4, 7
- CC(C)(O)C#Cc1ccc(C(=O)NCc2cc(-c3ccco3)on2)cc1
 : 1, 4
- COc1ccc(C(=O)Nc2cc(C(=O)Nc3ccc(Cl)cc3)ccc2N2CC3CC(C2)c2cccc(=O)n2C3)cc1 (stereo not drawn)
 : -3, -8
- Cc1cc(C)c(NC(=O)CSc2c(CC(C)C)cnc3c2c(=O)n(C)c(=O)n3C)c(C)c1
 : 8, 5
- CC(C)n1nnnc1SCc1cc(F)cc2c1OCOC2
 : 0, 2
- COc1ccccc1OC(C)C(=O)N1CCc2[nH]nc(-c3ccccc3)c2C1 (stereo not drawn)
 : -9, -8
